Compound activity deposited in PubChem BioAssay by Broad Institute.
Beta cell apopt: inhibitors of cytokine-induced beta cell apoptosis, primary screen, luminescence. INS-1E cytokine-induced death, ATP luminescence, 48 h; percent of positive-control rescue, neutral wells zero. protection from apoptosis, % (test concentration not listed). 300,000 compounds, 0.8% hits. AID 435005, 2010;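 active = all replicates at 75% or more, or half of them and the mean; inconclusive = half reach 75% but not the mean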;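 note: 0% = cytokine-treated negative control wells and 100% = positive control rescue; higher means more ATP so stronger rescue from cytokine killing; wells of about 40 µL received 100 nL stock; the first replicate is given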
FGF22 binding: binders of human FGF22 protein, primary screen, FGF22 synaptogenesis inhibitor project, biophysical, thermal shift, single point; calls only at 9.99 µM; AID 651658, 2012; Fibroblast growth factor 22 (Homo sapiens), Q9HCT0; recombinant FGF22 thermal shift, SYPRO orange fluorescence; percent of sucrose octasulfate shift, DMSO zero; 340,000 compounds, 1.5% hits;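 active = melting point raised past a set limit in the mean and every replicate; inconclusive = no clear call; three in four hits are not shown here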
Target sequence (Q9HCT0 whole entry, looked up): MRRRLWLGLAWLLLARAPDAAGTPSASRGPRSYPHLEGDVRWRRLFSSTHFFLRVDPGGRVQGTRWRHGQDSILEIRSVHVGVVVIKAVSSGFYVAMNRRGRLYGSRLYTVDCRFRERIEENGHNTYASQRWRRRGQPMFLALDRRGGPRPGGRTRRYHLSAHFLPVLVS
ALR inh: inhibitors of human ALR sulfhydryl oxidase, primary screen, biochemical, H2O2 detection, HRP-luminol luminescence, single point | purified ALR, DTT oxidation | inhibition, % (test concentration not listed) | 290,000 compounds, 3.8% hits;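 active = mean and each replicate at 75% or more; inconclusive = only one of the two met; inactive = neither met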;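 note: stock transfer was 7.5 nL into about 7.5 µL; 0% = neutral wells and 100% = wells with inactivated enzyme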
Target sequence (P55789 whole entry, looked up): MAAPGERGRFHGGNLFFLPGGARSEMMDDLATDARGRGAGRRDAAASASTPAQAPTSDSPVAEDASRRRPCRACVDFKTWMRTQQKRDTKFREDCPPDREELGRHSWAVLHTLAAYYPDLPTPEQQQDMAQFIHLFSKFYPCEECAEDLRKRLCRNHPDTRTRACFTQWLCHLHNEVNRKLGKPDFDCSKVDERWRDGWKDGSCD
T cruzi repl: inhibitors of intracellular T. cruzi growth, primary screen, luminescence, NIH3T3 host cells | 300,000 compounds, 1.4% hits | T. cruzi beta-gal in NIH3T3, 90 h | inhibition, % (test concentration not listed);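 active = mean inhibition across valid replicates above about 55%, limit read from the data; inconclusive = mean below that limit but half or more replicates reach it; inactive = mean below it, under half of replicates reach it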;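 note: signal also drops with host cell toxicity which is not excluded here; 0% = plate median of DMSO wells and 100% = zero luminescence signal; higher percent means less beta-gal luminescence so fewer parasites; stock transfer was 50 nL into about 50 µL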
Calb FLC: C. albicans growth inhibition with fluconazole, primary screen, CaCi-2 strain, Alamar Blue fluorescence. C. albicans CaCi-2 (fluconazole-resistant clinical isolate) + fluconazole, 48 h. growth inhibition, % (concentration not given with the values). 300,000 compounds, 0.57% hits. AID 1979, 2009;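 active = most replicates above 75%; inconclusive = exactly half above 75%; inactive = most below 75%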;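 note: all wells also contain fluconazole at 8 µg/ml as a sub-toxic cotreatment; 0% = median of DMSO wells and 100% = median of geldanamycin control wells; wells of about 8 µL received 7.5 nL stock; the first replicate is given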
RanGTP-Imp inh: inhibitors of RanGTP-importin-beta interaction, primary screen, biochemical, FRET, CFP-Ran, YFP-importin-beta, homogeneous; Ran GTPase (GTP-bound) - importin-beta complex; cell-free CFP-Ran/YFP-importin-beta FRET ratio; inhibition, % (test concentration not listed); 300,000 compounds, 1.1% hits;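 active = most replicates above 15%; inconclusive = exactly half above 15%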;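 note: 0% = DMSO wells and 100% = Ran loaded with GDP instead of GTP; wells of about 40 µL received 100 nL stock; the first replicate is given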
rRNA inh HTS: reduced GFP signal of wild-type E. coli, primary screen, bacterial rRNA inhibitor project, GFP/RFP fluorescence, OD600, single point. E. coli WT GFP vs humanized-ribosome RFP mutants, 24 h; active compounds read low; DMSO median 0, no signal -100. GFP signal change (wild-type ribosome), % (no concentration beside the values). 350,000 compounds, 1.6% hits;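 active = significant combined selectivity score with lowered wild-type GFP, culture density cut under 30%, mutant RFP and density less affected; inactive = any of these conditions unmet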; note: one replicate is shown; some compounds called inactive have numbers as strong as hits
MLL AF4-AF9 inh: inhibitors of AF4 peptide binding to AF9, primary screen, biochemical, AlphaScreen, biotin-AF4 peptide, FLAG-AF9, single point | AID 651704, 2012 | 350,000 compounds, 0.47% hits | inhibition, % at 10 µM | Protein AF-9 (Homo sapiens), P42568;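 active = every replicate reaching a set inhibition limit, whatever the replicate mean, cut at about 25% in these data; inconclusive = mean inhibition reaches that limit but some replicates miss it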;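 note: 0% = plate neutral control median and 100% = total signal loss; the record names both 10 and 1 µM as test concentration; the first replicate is given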
Target sequence (P42568 whole entry, looked up): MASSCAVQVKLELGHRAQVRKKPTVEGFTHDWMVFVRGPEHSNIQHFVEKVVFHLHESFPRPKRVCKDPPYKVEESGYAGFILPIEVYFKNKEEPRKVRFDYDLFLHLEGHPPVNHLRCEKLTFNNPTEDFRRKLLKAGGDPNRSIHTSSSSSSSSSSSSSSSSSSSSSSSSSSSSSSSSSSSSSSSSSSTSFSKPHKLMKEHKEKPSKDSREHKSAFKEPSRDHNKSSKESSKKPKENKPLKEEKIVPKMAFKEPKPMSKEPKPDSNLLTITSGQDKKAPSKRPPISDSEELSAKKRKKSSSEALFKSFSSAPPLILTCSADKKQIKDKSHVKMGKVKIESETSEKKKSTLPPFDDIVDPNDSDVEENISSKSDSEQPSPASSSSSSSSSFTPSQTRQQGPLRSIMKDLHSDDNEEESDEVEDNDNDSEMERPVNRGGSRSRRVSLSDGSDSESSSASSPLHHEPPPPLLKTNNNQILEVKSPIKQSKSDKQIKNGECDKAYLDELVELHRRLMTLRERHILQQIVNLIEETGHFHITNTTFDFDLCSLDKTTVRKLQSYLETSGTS
rRNA inh HTS OD600: second read-out of rRNA inh HTS, no call of its own (marks repeat the call); OD600 change, %; measured here: OD600 growth;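 optical density of the mix in the first replicate; 0 = DMSO median and -100 = no signal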
rRNA inh HTS RFP: further read-out of rRNA inh HTS, marked with its call; RFP signal change, %; measured here: RFP humanized mutant strains;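 first replicate; 0 = DMSO median and -100 = no signal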
The depositor's hits bear a star; i = inactive; u = inconclusive; x = no result given. This is a subset; rates above refer to the full screens.

1. c1cc2c(cc1CN1CCN(C3CCCCCC3)CC1)OCO2
2. COc1ccc(/C=C/C(=O)Nc2ccccc2Cl)cc1S(=O)(=O)N1CCOCC1
3. O=C(O)[C@H](CO)Nc1ncnc2sc3c(c12)CCC3
4. COc1cc(-c2ccc3c(=O)c4ccccc4n(C)c3c2)cc(OC)c1OC
5. COc1cccc(-n2cnc3sc4c(c3c2=O)CCC4)c1
6. CN(CC(=O)Nc1nc2ccc(F)cc2s1)S(=O)(=O)c1ccc(Cl)cc1
7. Cc1ccc(N/C=C/C(=O)c2cccs2)cc1
8. CN(C)S(=O)(=O)c1cccc(COC(=O)c2ccc3c(c2)OCO3)c1
Screen / compound no.	1	2	3	4	5	6	7	8
Beta cell apopt	4	2	-4	12	-4	9	-2	-5
FGF22 binding	i	i	x	i	i	x	i	i
ALR inh	-23	-6	3	-2	3	-203	8	-3
T cruzi repl	24	7	4	11	16	18	-1	-1
Calb FLC	x	2	4	-3	-1	-3	-4	34
RanGTP-Imp inh	3.0	2.2	-0.2	57*	-0.4	7.5	0.6	-4.3
rRNA inh HTS	14	2	x	-12	-4	-13	-17	-17
rRNA inh HTS OD600	7	8	x	-23	-6	0	-10	-13
rRNA inh HTS RFP	0.9	4.5	x	-3.3	1.3	5.7	0.2	-1.5
MLL AF4-AF9 inh	0.3	-4.2	x	-4.9	-2.8	x	2.4	-1.2

Among those listed so far, these have a Cl atom:
2. COc1ccc(/C=C/C(=O)Nc2ccccc2Cl)cc1S(=O)(=O)N1CCOCC1
6. CN(CC(=O)Nc1nc2ccc(F)cc2s1)S(=O)(=O)c1ccc(Cl)cc1
Screen / compound no.	2	6
Beta cell apopt	2	9
FGF22 binding	i	x
ALR inh	-6	-203
T cruzi repl	7	18
Calb FLC	2	-3
RanGTP-Imp inh	2.2	7.5
rRNA inh HTS	2	-13
rRNA inh HTS OD600	8	0
rRNA inh HTS RFP	4.5	5.7
MLL AF4-AF9 inh	-4.2	x

Remaining list, next part:
9. Cc1ccc(C)c(SCC(=O)NC(=O)Nc2ccc3c(c2)OCCO3)c1
10. C=CCn1cnc2c(nnn2Cc2ccc(F)cc2)c1=O
11. Cc1ccc(NC(=O)c2ccc(NS(=O)(=O)c3c(C)noc3C)cc2)cc1C
12. CCOc1cc(N2CCOCC2)c(OCC)cc1NC(=O)CN1CCSC1=O
13. Cc1ccc(NC(=O)CN(C)C2CCCCC2)cc1Cl
14. COCC(N)(c1ccccc1)c1nc2ccccc2n1C (stereo not drawn)
15. O=C(CCCCC(=O)NCc1cccs1)NCc1cccs1
16. CCN(CC)S(=O)(=O)c1cccc(C(=O)N[C@H](C(=O)NC2=NCCS2)C(C)C)c1
Screen / compound no.	9	10	11	12	13	14	15	16
Beta cell apopt	-7	-2	-1	-5	-8	x	-4	-7
FGF22 binding	x	i	x	i	i	x	x	i
ALR inh	-2	-2	8	x	66	-7	-10	-2
T cruzi repl	4	-4	-13	x	19	-21	-5	x
Calb FLC	-7	-7	-16	x	12	-2	-6	x
RanGTP-Imp inh	7.2	2.3	-3.8	x	2.0	2.8	2.3	x
rRNA inh HTS	x	20	x	5	-10	x	x	4
rRNA inh HTS OD600	x	20	x	7	-5	x	x	6
rRNA inh HTS RFP	x	3.1	x	-1.4	-2.0	x	x	5.6
MLL AF4-AF9 inh	x	3.8	x	-6.4	5.1	x	x	-0.6

17. N#C/C(=C\c1ccc(-c2ccccc2Cl)o1)C(=O)Nc1nc2ccccc2s1
18. COc1cc(NC(=O)c2ccc(Cl)cc2Cl)ccc1-c1cc2ccccc2oc1=O
19. Cc1ccc(S(=O)(=O)Nc2nc3ccccc3nc2NCC2CCCO2)cc1 (stereo not drawn)
20. COc1ccc(/C(C)=N/NC(=O)CNC(=O)c2ccncc2)cc1
21. CNS(=O)(=O)c1ccc(NC(=O)c2cc(-c3ccncc3)nc3ccc(Cl)cc23)cc1
22. Cc1ccc(S(=O)(=O)Nn2cnnc2)cc1
23. O=C(NCc1ccc2c(c1)OCO2)C(=O)NC1CCCCC1
24. Cc1nn2c(NCCOCCO)c3c(nc2c1-c1ccccc1)CCC3
Screen / compound no.	17	18	19	20	21	22	23	24
Beta cell apopt	-1	8	-5	-8	-2	-4	-2	-4
FGF22 binding	i	x	i	i	i	i	x	i
ALR inh	3	-34	x	0	-29	x	1	56
T cruzi repl	-6	-9	5	-2	17	-9	-13	6
Calb FLC	1	4	13	3	6	3	4	-5
RanGTP-Imp inh	-2.2	1.1	2.8	1.9	0.8	4.9	u	0.4
rRNA inh HTS	9	x	-11	3	7	7	x	-22
rRNA inh HTS OD600	-1	x	-15	10	16	-5	x	-22
rRNA inh HTS RFP	0.9	x	-3.1	-0.7	0.2	-2.5	x	-1.9
MLL AF4-AF9 inh	-8.6	x	1.8	4.1	-2.9	-4.5	x	-0.2

25. O=C(c1ccc2c(=O)n(-c3ccccc3)c(=S)[nH]c2c1)N1CCCCC1
26. CC1CCN(c2nc(-c3cccnc3)nc3scc(-c4ccccc4)c23)CC1
27. COc1ccc(CNC(=O)C(CCSC)NC(=O)c2ccco2)cc1 (stereo not drawn)
28. COc1cccc(OCC(O)CNC(C)c2ccccc2)c1 (stereo not drawn)
29. Cc1noc(C)c1CCC(=O)N1CCCC(N2CCN(c3ccc(F)cc3)CC2)C1 (stereo not drawn)
30. O=C(NCc1ccco1)C1CC(c2ccccc2C(F)(F)F)=NO1 (stereo not drawn)
31. COc1ccccc1N1C(=O)c2cccc3c(N(C)CCO)ccc(c23)C1=O
32. COc1cc(OC)cc(C(=O)NCCc2ccc(OC)c(OC)c2)c1
Screen / compound no.	25	26	27	28	29	30	31	32
Beta cell apopt	41	9	-18	x	-3	-9	0	-4
FGF22 binding	i	i	x	i	i	i	i	i
ALR inh	x	-2	-6	-12	46	46	-42	-10
T cruzi repl	26	30	-5	5	2	-11	-21	-5
Calb FLC	3	4	7	6	2	-4	-9	-12
RanGTP-Imp inh	-2.5	-3.1	-0.4	8.0	0.6	-3.4	-79	1.0
rRNA inh HTS	0	8	x	10	9	15	25	-4
rRNA inh HTS OD600	12	13	x	5	11	-2	5	1
rRNA inh HTS RFP	-2.3	1.7	x	1.9	5.6	13	-0.8	1.2
MLL AF4-AF9 inh	0.0	0.4	x	-2.0	-0.4	0.8	-9.4	-5.5

33. Cc1cc(C(=O)Nc2ccccc2)c2ccccc2n1
34. C=CCNc1nc(C(=O)OCC)nc2ccccc12
35. O=C(CCCCn1c(=S)[nH]c2ccsc2c1=O)NCc1ccco1
36. COc1cc(C2NCC(c3ccc(Cl)cc3Cl)c3c2[nH]c2ccccc32)cc(OC)c1OC (stereo not drawn)
37. COc1cc(C(=O)NC(=S)NNC(=O)c2cnccn2)cc(OC)c1OC
38. S=C(Nc1ccccc1)N1N=CCC1c1ccccc1 (stereo not drawn)
39. COc1cccc(-c2nc(SCC(=O)Nc3nc(-c4ccccc4)c(C)s3)[nH]c(=O)c2C#N)c1
40. COc1cc(OC)c(NC(=O)C2CC(=O)N(c3ccc4c(c3)OCCO4)C2)cc1Cl (stereo not drawn)
Screen / compound no.	33	34	35	36	37	38	39	40
Beta cell apopt	-7	-1	-1	11	82*	-7	-1	-8
FGF22 binding	i	i	i	i	x	x	i	i
ALR inh	-4	-2	x	-9	96*	-7	99*	x
T cruzi repl	-14	-11	6	43	-18	-30	1	-11
Calb FLC	-20	-12	-4	1	38	-4	u	-1
RanGTP-Imp inh	3.3	-2.0	1.7	-2.8	-0.1	0.0	1.2	u
rRNA inh HTS	13	3	1	0	x	x	-13	5
rRNA inh HTS OD600	7	5	2	-7	x	x	-5	0
rRNA inh HTS RFP	-5.3	3.8	-6.0	4.8	x	x	2.4	-4.5
MLL AF4-AF9 inh	-2.9	-4.2	5.4	-7.4	x	x	0.8	-2.3

41. Cc1nc2cccnc2nc1C
42. COc1cccc(C2Nc3ccccc3NC3=C2C(=O)CC(C)(C)C3)c1 (stereo not drawn)
43. Cc1cc(NC(=O)CSc2ccnc(=O)[nH]2)no1
44. CCC1(C)NC(=O)N(CC(=O)Nc2sc3c(c2C(N)=O)CCC3)C1=O (stereo not drawn)
45. Cc1occc1C(=O)NNC(=O)Nc1ccc([N+](=O)[O-])cc1
46. CCCOc1cccc(C(=O)N2CCN(C(=O)C3CCCO3)CC2)c1 (stereo not drawn)
47. COc1ccc(-c2nn(Cc3ccccc3)cc2C(=O)N2CCN(c3ncccn3)CC2)cc1
48. COc1ccc(NS(=O)(=O)c2ccc(O)c(NC(=O)c3cc4c(C)nn(-c5ccc(F)cc5)c4s3)c2)cc1
Screen / compound no.	41	42	43	44	45	46	47	48
Beta cell apopt	1	6	1	1	x	-2	0	12
FGF22 binding	i	i	i	x	i	i	i	x
ALR inh	-9	98*	54	x	13	7	3	-3
T cruzi repl	-11	-1	-9	-15	-21	7	x	-6
Calb FLC	-2	-4	0	-4	u	-2	x	-8
RanGTP-Imp inh	-2.9	-4.0	u	5.2	9.4	2.6	x	0.5
rRNA inh HTS	9	0	13	x	0	8	-15	x
rRNA inh HTS OD600	11	-5	14	x	6	10	-18	x
rRNA inh HTS RFP	1.9	68	0.9	x	0.3	0.5	5.3	x
MLL AF4-AF9 inh	-1.9	1.7	2.9	x	-2.4	0.8	2.2	x

49. CCC(C)NC(=O)c1ccccc1NC(=O)CN(c1ccc(OC)cc1)S(C)(=O)=O (stereo not drawn)
50. Cc1cc(C)n(CCNC(=O)c2cc(COc3c(F)cccc3F)on2)n1
51. CCCC(=O)NNc1c2ccccc2nc2ccccc12
52. O=C(NC(=S)N1CCCC(O)C1)c1ccco1 (stereo not drawn)
53. O=C(/C=C/Nc1cccc(O)c1)c1ccccc1
54. CN(C)C(=O)COC(=O)c1ccccc1Sc1ccccc1C#N
55. O=C(c1cccs1)N1CCC(Cc2ccccc2)CC1
56. O=c1c2ccccc2nnn1CSc1nnc(-c2ccc3c(c2)OCO3)o1
57. Nc1c(C(=O)N/N=C/c2ccc(F)cc2)oc2nc(-c3ccccc3)cc(-c3ccco3)c12
Screen / compound no.	49	50	51	52	53	54	55	56	57
Beta cell apopt	-11	7	4	-3	-4	-6	4	-5	-1
FGF22 binding	x	i	x	i	x	i	x	x	i
ALR inh	-5	3	99*	0	-4	61	-3	-3	-41
T cruzi repl	x	x	28	x	-1	-5	15	x	0
Calb FLC	12	24	33	x	1	8	-19	-3	-12
RanGTP-Imp inh	5.0	2.2	21*	x	-7.8	-2.5	-0.4	26	-5.1
rRNA inh HTS	x	-15	x	18	x	12	x	x	22
rRNA inh HTS OD600	x	-15	x	30	x	-4	x	x	8
rRNA inh HTS RFP	x	-1.0	x	0.1	x	-1.0	x	x	5.3
MLL AF4-AF9 inh	x	-0.2	x	0.2	x	-4.4	x	x	-0.1
